# GIV-Gai inh: blocks GIV peptide binding to rat Galpha-i3. P08753. Galpha-i3/FITC-GIV peptide fluorescence polarization, 90 min; stronger effect = lower value; scaled: aluminum fluoride 0%, vehicle 100%. percent of control (FP), % (test concentration not listed). 210,000 compounds, 0.42% hits. AID 1224905;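 active = replicate mean at 85% of control or lower, very high polarization wells dropped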;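 also: wells of about 15 µL received 100 nL stock; the first replicate is given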
# Target sequence (P08753 whole entry, looked up): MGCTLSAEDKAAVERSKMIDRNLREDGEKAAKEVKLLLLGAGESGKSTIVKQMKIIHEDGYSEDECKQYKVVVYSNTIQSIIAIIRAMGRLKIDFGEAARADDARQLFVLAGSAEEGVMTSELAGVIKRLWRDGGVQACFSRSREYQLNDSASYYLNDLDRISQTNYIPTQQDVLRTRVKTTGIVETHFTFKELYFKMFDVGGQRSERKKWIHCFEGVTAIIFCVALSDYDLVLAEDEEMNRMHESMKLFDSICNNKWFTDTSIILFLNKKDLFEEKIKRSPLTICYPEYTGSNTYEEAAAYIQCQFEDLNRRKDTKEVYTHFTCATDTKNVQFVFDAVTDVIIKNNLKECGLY
# Sa growth 42C: blocks Staphylococcus aureus growth | S. aureus RN4220 growth, OD600, 20 h, 42 °C; stronger effect = lower value | relative growth, % (concentration not given with the values) | 170,000 compounds, 0.53% hits;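 active = growth at 42 °C up to 50% and 20 or more points under that at 30 °C, or under 10% at both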;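 also: 300 nL library stock went into each well; scaled to the means of positive and negative controls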
# HCMV UL50-53 inh: inhibitors of HCMV UL50-UL53 nuclear egress complex interaction; 190,000 compounds, 0.15% hits; HTRF UL50-UL53 interaction, normalized percent inhibition; inhibition, % (concentration not given with the values);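 active = both replicates at 50% or more, plus weaker picks with an unusually low signal ratio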;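 also: stock transfer was 100 nL into about 20 µL; 0% = negative control wells and 100% = wells with untagged competitor protein; inactives centre near -12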
# Sa growth 42C second temp: recorded beside Sa growth 42C, whose call it bears; relative growth, %; measured here: growth at 30 °C;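 optical density after 20 h as mean of two plates; 100% = untreated growth and lower means inhibition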
# Active calls of the source: *; nt = not tested or not shown; & = joins results of further samples.
SMILES,GIV-Gai inh,Sa growth 42C,Sa growth 42C second temp,HCMV UL50-53 inh
Cc1onc(-c2ccccc2)c1C(=O)/C=C/N(C)C,102,103,87,-18
CCOC(=O)c1c(-c2ccc(Br)cc2)csc1NC(=O)c1ccc(F)cc1,105,95,92,-26
CSCCC1COC(c2cccs2)=N1 (stereo not drawn),105,83,86,2
CCCN1CCN(CCCNC(=O)c2cc3cccc4c3n2CC(CC)O4)CC1 (stereo not drawn),101,nt,nt,-13
CCOC(=O)N1CCc2c(sc3c2C(=O)NC(c2cc(OC)c(OC)c(OC)c2)N3)C1 (stereo not drawn),96,91,84,-70
O=C(Nc1ccc2c(c1)OCCO2)N1CCN(c2ccc(-c3noc(C4CCC4)n3)cc2)CC1,108,nt,nt,-31
CCc1cccc(NC(=O)Cn2c(C(=O)OC)cc3ccsc32)c1,106,93,87,nt
COc1ccc(-c2nc3ccccc3o2)cc1NC(=O)c1cc([N+](=O)[O-])ccc1N1CCOCC1,107,111,83,-24
c1cc2nsnc2c2c1Nc1nc3nonc3nc1N2,99,87,54,-36
CC(C)c1ccc(CN2C(=O)c3ccccc3C2=O)cc1,nt,98,89,-22
COC(=O)c1ccc(NC(=S)NC(=O)N2CCOCC2)cc1,nt,84,88,-1
Cc1ccc(NC(=O)CCc2nnc3ccc(N4CCN(C5CCCCC5)CC4)nn23)cc1C,104,113,96,nt
Clc1ccccc1OCCn1cnc2ccccc21,101,80,74,-16
O=C(CCCn1c(=O)c2cccn2c2cccnc21)Nc1ccccc1C(F)(F)F,100,101,84,nt
Cc1ccc(C)c(NS(=O)(=O)c2ccc3c(c2)n(C)c(=O)n3C)c1,97,104,80,nt
CC1(C)CC(=O)C/C(=N\NC(=O)CCc2ccccc2)C1,94,99,99,-40
COc1ccc(C(=O)N2CCC(C(=O)Nc3ccccc3Cl)CC2)cc1,110,104,90,8
CCCn1c(=O)c2c(nc3oc(-c4ccccc4)cn32)n(C)c1=O,106,99,84,-30
c1ccc(-c2nc(SCC3COc4ccccc4O3)oc2-c2ccccc2)cc1 (stereo not drawn),nt,95,76,-12
O=C(Nc1ccc(Br)cc1F)c1ncoc1-c1ccco1,100,92,92,nt
CN(C(=O)c1ccc(Nc2cc(-c3ccc(F)cc3)ncn2)cc1)C1CCCCC1,105,nt,nt,-26
CCC(=O)N1c2ccccc2CC1C(=O)NCCN1CCN(c2cc(Cl)ccc2C)CC1 (stereo not drawn),103,93,92,nt
CCOC(=O)C1C(=O)Nc2nc3ccccc3n2C1C(C)C (stereo not drawn),96,92,88,-26
Cc1cc(C)n2cc(CN(C)Cc3ccccc3)nc2n1,nt,93,92,5
COc1ccc(S(=O)(=O)NCc2c(F)cccc2Cl)cc1OC,95,93,79,-16
Cc1cccc(NC(=O)CSc2nc(=O)n(Cc3ccccn3)c3c2CCC3)c1C,101,108,84,nt
CC(C)CC(NC1CCS(=O)(=O)C1)C(=O)O (stereo not drawn),101,80,82,-26
Cc1ccc2oc(=O)c3cnn(CC(=O)NCCCN4CCc5ccccc5C4)c3c2c1,96,108,89,1
Cc1ccc(NC(=O)c2sc3nc(C(F)(F)F)nn3c2C)cc1,97,105,92,2
O=C(COC(=O)Cn1[nH]c(=O)c2ccccc2c1=O)Nc1ccc2c(c1)OCO2,nt,84,87,-22
COc1cc(NC(=O)Cn2cnc3ccc(S(=O)(=O)N4CCC(C)CC4)cc3c2=O)cc(OC)c1OC,102,91,88,-22
O=c1c2ccccc2c(C=NCCCn2ccnc2)c(O)n1-c1ccccn1,nt,80,87,-67
CCCN(CCC)S(=O)(=O)c1c(C(=O)OCC)c(C)n(C)c1C,104,96,84,-30
O=C(c1cc2c(s1)CCC2)N1CCN(S(=O)(=O)c2cccc(Br)c2)CC1,nt,91,94,-14
CCCSc1nnc2c(n1)OC(c1ccc(OCC(=O)O)cc1)Nc1ccccc1-2 (stereo not drawn),103,106,95,nt
COc1cc(OC)c(NC(=O)c2cn(C3CCCC3)c(=O)c3c2c2ccccc2n3C)cc1Cl,99,107,84,-3
NS(=O)(=O)c1ccc(-n2cccc2C=Nn2cnnc2)cc1,nt,85,92,-53
Cc1cc(C)c2c(n1)SCCN2C(=O)Nc1ccc2c(c1)OCO2,107,nt,nt,-6
ON(/C=C1\C=Nc2ccccc21)c1ccccc1,97,101,80,-10&-33
O=C(NCc1ccco1)C(=S)NCc1ccccc1,101,111,110,-4
CC(CNC(=O)c1nnc(Cc2ccc(Cl)cc2)o1)c1ccccc1 (stereo not drawn),102,114,79,nt
c1ccc(-n2nnnc2SCCSc2nnnn2-c2ccccc2)cc1,98,95,82,-8
C/C(=N\NC(N)=S)C1(C)N(O)C(C)(C)C(c2cccs2)=[N+]1[O-] (stereo not drawn),nt,85,94,-18
NC(=O)COC(=O)c1cccc(S(=O)(=O)N2CCN(c3ccccc3)CC2)c1,nt,107,89,-19
CN1CCN(c2nc3ccccn3c(=O)c2/C=C2\SC(=S)N(CCc3ccccc3)C2=O)CC1,189,nt,nt,-16
COC(=O)c1ccccc1N1C(=O)CC(Sc2ccccc2N)C1=O (stereo not drawn),107,112,109,0
COc1ccccc1OCCN(C#N)c1nc(N(C)C)nc(N(C)C)n1,102,nt,nt,-29
COCCN1Cc2cccc(C(=O)N3CCN(c4ccccc4)CC3)c2C1=O,100,109,101,2
Cc1cc(O)c(C(=O)c2cnc3c(c2)COc2ccccc2-3)cc1Cl,105,87,92,-23
CCOC(=O)c1cccc(NS(=O)(=O)c2cc(C(=O)OCC)n(C)c2)c1,103,90,75,nt

# Ordered by the number under Sa growth 42C (high to low): 3 from the list above
Structure	Sa growth 42C
COCCN1Cc2cccc(C(=O)N3CCN(c4ccccc4)CC3)c2C1=O	109
CCOC(=O)c1cccc(NS(=O)(=O)c2cc(C(=O)OCC)n(C)c2)c1	90
Cc1cc(O)c(C(=O)c2cnc3c(c2)COc2ccccc2-3)cc1Cl	87

# Later entries:
SMILES,GIV-Gai inh,Sa growth 42C,Sa growth 42C second temp,HCMV UL50-53 inh
CS(=O)(=O)c1ccccc1C(=O)N(Cc1cccs1)c1ccc2c(c1)OCCO2,nt,92,95,-9
Oc1ccc(Oc2c(Cl)cncc2Cl)cc1,112,100,84,2
CS(=O)(=O)CCC(C(=O)Oc1cccc2cccnc12)N1C(=O)c2ccccc2C1=O (stereo not drawn),99,0.7*,0.4*,-11
COc1ccccc1CNC(=O)c1ccc(CSc2nc3ccncc3n2Cc2ccccc2C)cc1,103,119,98,-25
COc1ccc(-c2nc(CN3C(=O)CSc4nc(C)cc(C)c43)c(C)o2)cc1OC,97,87,87,-13
CCCN1CCN(C(=O)c2cccc3c2C(=O)N(Cc2cccnc2)C3)CC1,103,83,83,-21
CN1CCN(C(=O)c2cc(Oc3c(F)c(F)c(F)c(F)c3F)cc(C(=O)N3CCN(C)CC3)c2)CC1,nt,91,86,-12
CC(C)NC(=O)N1CCCC(c2cccc(C(=O)NC3CC3)c2)C1 (stereo not drawn),109,nt,nt,-24
CN(CC(=O)Nc1ccccc1Cl)Cn1nc(-c2ccco2)oc1=S,nt,100,98,-23
Cc1ccc(-c2c(C#N)c(N)n(C)c(=O)c2C#N)c(C)c1,nt,105,90,-28
COCCN[C@H]1CS(=O)(=O)C[C@@H]1S(=O)(=O)c1ccc(OC)cc1,102,nt,nt,-26
CCOC(=O)C1CCN(C(=O)c2ccc3c(c2)sc2nc(-c4ccccc4)cn23)CC1,105,103,65,nt
COc1cc(OC)c(C2SCCN2C(=O)c2cc3ccccc3oc2=O)cc1OC (stereo not drawn),102,nt,nt,-13
CC(=O)Nc1c2n(c3ccc(F)cc13)CC(C)(C(=O)NC1CCCC1)N(CC1CCCO1)C2=O (stereo not drawn),98,nt,nt,60
CCOCCc1nnc(NC(=O)C(=O)c2cc(C)n(-c3cccc(Cl)c3)c2C)s1,99,93,96,-10
COc1c(O)cc2c(c1OC)CC(=O)CCC2,nt,109,72,2
CCOC(=O)c1cnc2c(-c3ccc(Cl)cc3)cnn2c1C,nt,130,93,-9
CN1C(=O)C(C)(C)N(Cc2ccccc2)c2ccccc21,104,88,60,-3
ClCc1cn(-c2ccccc2)nc1-c1ccccc1,nt,113,67,-20
O=C1N=c2ccc(Br)cc2=C1c1sc(=S)n(NS(=O)(=O)c2ccccc2)c1O,104,nt,nt,-31
COc1ccccc1N1CCN(C(=O)c2cn(CC(C)C)c(=O)c3c2c2ccccc2n3C)CC1,101,99,87,-9
CCc1cccc(CC)c1N=C1SCCN1CCO,nt,109,90,-3
C/C(=N\NC(=O)C1CC1)c1ccc(-n2ccnc2)cc1,nt,100,98,-45
CCCCN1C=C(OC(=O)c2ccc(C)cc2)c2ccccc2S1(=O)=O,96,nt,nt,-3
c1ccc(-c2cc(NCCN3CCCCC3)c3ccccc3n2)cc1,108,112,100,-5
Cc1c(CC#N)ccc2ccccc12,102,99,91,-8
CC(C)c1ccc(NC(=O)CSc2ncnc3c2sc2ccccc23)cc1,110,148,92,nt
CCOC(=O)c1c(CN2CCN(CC#N)CC2)n(-c2ccccc2)c2cc(Br)c(OC)cc12,101,nt,nt,13
Cc1cc(C)c(NC(=O)CCn2c(=O)c3cccn3c3cccnc32)c(C)c1,99,114,92,nt
CC1CCN(C(=O)COC(=O)c2ccc(I)cc2)CC1,nt,116,88,-24
Cc1cc(C(=O)OCC(=O)Nc2ccccc2)c(C)n1-c1ccccc1,nt,107,87,-32
COC(=O)c1sc(-c2cccs2)cc1NS(=O)(=O)c1cn(C)cn1,104,105,103,-4
CCOc1ccccc1C1CC(=O)Nc2c1ccc1ccccc21 (stereo not drawn),99,84,92,-13
CCC(C)NC(=O)c1cc2cc(S(=O)(=O)N3CCCCC3)ccc2n1C (stereo not drawn),100,91,86,nt

# Of the compounds above, these have a halogen.
SMILES,GIV-Gai inh,Sa growth 42C,Sa growth 42C second temp,HCMV UL50-53 inh
CCOC(=O)c1c(-c2ccc(Br)cc2)csc1NC(=O)c1ccc(F)cc1,105,95,92,-26
Clc1ccccc1OCCn1cnc2ccccc21,101,80,74,-16
O=C(CCCn1c(=O)c2cccn2c2cccnc21)Nc1ccccc1C(F)(F)F,100,101,84,nt
COc1ccc(C(=O)N2CCC(C(=O)Nc3ccccc3Cl)CC2)cc1,110,104,90,8
O=C(Nc1ccc(Br)cc1F)c1ncoc1-c1ccco1,100,92,92,nt
CN(C(=O)c1ccc(Nc2cc(-c3ccc(F)cc3)ncn2)cc1)C1CCCCC1,105,nt,nt,-26
CCC(=O)N1c2ccccc2CC1C(=O)NCCN1CCN(c2cc(Cl)ccc2C)CC1 (stereo not drawn),103,93,92,nt
COc1ccc(S(=O)(=O)NCc2c(F)cccc2Cl)cc1OC,95,93,79,-16
Cc1ccc(NC(=O)c2sc3nc(C(F)(F)F)nn3c2C)cc1,97,105,92,2
O=C(c1cc2c(s1)CCC2)N1CCN(S(=O)(=O)c2cccc(Br)c2)CC1,nt,91,94,-14
COc1cc(OC)c(NC(=O)c2cn(C3CCCC3)c(=O)c3c2c2ccccc2n3C)cc1Cl,99,107,84,-3
CC(CNC(=O)c1nnc(Cc2ccc(Cl)cc2)o1)c1ccccc1 (stereo not drawn),102,114,79,nt
Cc1cc(O)c(C(=O)c2cnc3c(c2)COc2ccccc2-3)cc1Cl,105,87,92,-23
Oc1ccc(Oc2c(Cl)cncc2Cl)cc1,112,100,84,2
CN1CCN(C(=O)c2cc(Oc3c(F)c(F)c(F)c(F)c3F)cc(C(=O)N3CCN(C)CC3)c2)CC1,nt,91,86,-12
CN(CC(=O)Nc1ccccc1Cl)Cn1nc(-c2ccco2)oc1=S,nt,100,98,-23
CC(=O)Nc1c2n(c3ccc(F)cc13)CC(C)(C(=O)NC1CCCC1)N(CC1CCCO1)C2=O (stereo not drawn),98,nt,nt,60
CCOCCc1nnc(NC(=O)C(=O)c2cc(C)n(-c3cccc(Cl)c3)c2C)s1,99,93,96,-10
CCOC(=O)c1cnc2c(-c3ccc(Cl)cc3)cnn2c1C,nt,130,93,-9
ClCc1cn(-c2ccccc2)nc1-c1ccccc1,nt,113,67,-20
O=C1N=c2ccc(Br)cc2=C1c1sc(=S)n(NS(=O)(=O)c2ccccc2)c1O,104,nt,nt,-31
CCOC(=O)c1c(CN2CCN(CC#N)CC2)n(-c2ccccc2)c2cc(Br)c(OC)cc12,101,nt,nt,13
CC1CCN(C(=O)COC(=O)c2ccc(I)cc2)CC1,nt,116,88,-24

# Assay outcomes from PubChem.
